Screening data (PubChem)
NPYLR7 ag – agonists of mosquito NPYLR7 receptor, primary screen, cell-based, Aedes aegypti, calcium fluorescence, mosquito biting behavior; activation, % at 10 µM; HEK293T NPYLR7/Galpha15, GCaMP6s calcium fluorescence; hit rate 0.15% among 270,000; Aedes aegypti neuropeptide Y-like receptor 7 (NPYLR7); in the data active = activation above about 40%;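 note: 0% = vehicle and 100% = reference agonist at the receptor; some compounds past the cut are filed as inactive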
NPYLR7 ag max-min – second read-out of NPYLR7 ag, no call of its own (marks repeat the call); activation, %; measured here: Max-Min RFU normalised activation; some inactives read as strong as hits;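 span of the calcium signal over five minutes; 0% = vehicle and 100% = native peptide agonist; compound fluorescence can raise it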
* = called active by the depositor; & = joins results of further samples. The list is partial, so the mix of outcomes need not match the whole.

Values in the order: NPYLR7 ag, NPYLR7 ag max-min
- CN(Cc1csc(-c2ccc(Cl)cc2)n1)CC1OCCO1
→ -7, -11
- CCOC(=O)C1(CCOC)CCN(Cc2cn[nH]c2-c2cc(C)ccc2C)CC1
→ 3, 0
- Cc1ccc(C)c(Cn2cccc2C2=NCCO2)c1
→ 12, 5
- CC(C)C(=O)N1CCCC1(C)C(=O)N(C)Cc1ccccc1 (stereo not drawn)
→ 3, 0
- CC(C)(NCCN1C(=O)NC2(CCCC2)C1=O)c1ccc(Cl)cc1
→ -1, 173
- O=C(CSc1nc2ncccc2c(=O)n1-c1ccccc1)NC(=O)NC1CC1
→ 4, 2
- C#Cc1cccc(Nc2ncnc3cc4c(cc23)OCCOCCOCCO4)c1
→ -7, -9
- CC(Oc1ccc(-c2ccccc2)cc1)C(=O)NC1CCS(=O)(=O)CC1 (stereo not drawn)
→ 4, 5
- O=S(=O)(N1CCOCC1)N1CCCC2CCCC21 (stereo not drawn)
→ -3, -4
- Cc1ccc2oc(=N)c3c(N)nc(-c4ccc5c(c4)OCCCO5)cc3c2c1
→ 4, 12
- COc1ccccc1C(=O)Nc1ccnn1C1CCN(Cc2cnc(SC)nc2)CC1
→ 19, 10
- O=C(N/N=C\C=C\c1ccccc1)c1cc(C23CC4CC(CC(C4)C2)C3)[nH]n1
→ 3, 2
- CCN(CC)C(=O)Nc1cn(C)c2ccccc12
→ 4, -7
- C#CCNC(=O)NC(C)c1ccc(C(C)C)cc1 (stereo not drawn)
→ 8, 7
- N#CC(c1ccc(Br)cc1)N1CCN(C(C#N)c2ccc(Br)cc2)CC1 (stereo not drawn)
→ 3, 10
- CC1(C(=O)NCC2CCCCC2)CCN1Cc1ccc(-c2ccccc2)o1 (stereo not drawn)
→ 7, 1
- CCCCCSC1=C(C#N)C(C)(C)C(C#N)C(=O)N1 (stereo not drawn)
→ 1, 0
- Cc1cccc(C(=O)NC(C)c2ccc3c(c2)NC(=O)CO3)c1 (stereo not drawn)
→ 10, 7
- COc1cc(COC2CCCN(C(=O)c3ccco3)C2)cc(OC)c1 (stereo not drawn)
→ -7, -2
- Cc1cc(C2CCC2)nc(N2Cc3cnn(CCO)c3C2)n1
→ -1, -5
- Cc1ncsc1CCC(=O)N(C)Cc1cc(C2CC2)n[nH]1
→ -2, 5
- COc1cccc(OC)c1OCCOc1ccc(Br)cc1Cl
→ -6, 8
- COc1cc(/C=C2/SC(=S)N(CC(=O)O)C2=O)ccc1OCC(=O)O
→ -6, -15
- CC(Oc1ccccc1F)C(=O)Nc1ncn[nH]1 (stereo not drawn)
→ 13, 10
- Cc1nonc1CN(C)Cc1cn(Cc2ccccc2)nc1-c1cc2ccccc2o1
→ 19&-4, 12&-6
- COCCCN1C(=O)N(Cc2ccccn2)C(=O)C12CCN(Cc1cc3ccccc3s1)CC2
→ 18, 12
- O=C(NCCc1nnc2ccc(SCC(=O)N3CCCC3)nn12)c1ccc(F)cc1
→ -20, -22
- CC(=O)Oc1ccccc1CN1C(=O)C(C)ON=C1c1ccccn1 (stereo not drawn)
→ -2, -6
- CCn1cc(CN2CCc3c([nH]c4ccccc34)C2c2nc3ccccc3n2C)c(C)n1 (stereo not drawn)
→ -2, -6
- O=C(NCC(c1ccco1)N1CCc2ccccc21)C(=O)Nc1ccccc1[N+](=O)[O-] (stereo not drawn)
→ 11, 2

Of the compounds above, these contain fluorine.
Values in the order: NPYLR7 ag, NPYLR7 ag max-min
- CC(Oc1ccccc1F)C(=O)Nc1ncn[nH]1 (stereo not drawn)
→ 13, 10
- O=C(NCCc1nnc2ccc(SCC(=O)N3CCCC3)nn12)c1ccc(F)cc1
→ -20, -22

Compound profiles (already shown). Screens in order: NPYLR7 ag | NPYLR7 ag max-min
Results for O=S(=O)(N1CCOCC1)N1CCCC2CCCC21 (stereo not drawn) : -3 | -4
Results for CC(Oc1ccc(-c2ccccc2)cc1)C(=O)NC1CCS(=O)(=O)CC1 (stereo not drawn) : 4 | 5
Results for Cc1cccc(C(=O)NC(C)c2ccc3c(c2)NC(=O)CO3)c1 (stereo not drawn) : 10 | 7
Results for C#Cc1cccc(Nc2ncnc3cc4c(cc23)OCCOCCOCCO4)c1 : -7 | -9

Other results follow:
Values in the order: NPYLR7 ag, NPYLR7 ag max-min
- O=[N+]([O-])c1ccc2[nH]c(O)c(N=Nc3ccccn3)c2c1
→ 10, 7
- C(=NNc1nc2ccccc2o1)C(c1ccccc1)c1ccccc1
→ 0, 0
- CCCC(=O)N1CCC1(C)C(=O)Nc1cccc2ccccc12 (stereo not drawn)
→ 3, -1
- O=C(CCCOc1ccccc1)N1CCN(c2c3c(nc4ncnn24)CCCC3)CC1
→ 24, 13
- Cc1noc(C)c1NC(=O)c1ccc(CN2CCc3ccccc3C2)cc1
→ 24, 17
- Cc1ccccc1-n1ncc(C(C)NC(=O)C2=NN(C)C(=O)CC2)c1C (stereo not drawn)
→ 10, 3
- CC(/C=C1\N=C(c2cccc(Br)c2)OC1=O)=C\c1ccccc1
→ -2, -5
- Cc1ccc(Nc2nc(NCCN(C)C)nc3c2cnn3-c2ccccc2)cc1C
→ 0, -2
- c1ccc2oc(-c3nnn(CC4CCCCO4)n3)cc2c1 (stereo not drawn)
→ -8, -8
- CCc1c(C(=O)N2CCCC2)c(C)nn1-c1ccccc1Cl
→ 2, 1
- COc1ccc(NC(=O)CC2CSc3nc4c(cnn4-c4ccccc4)c(=O)n32)cc1 (stereo not drawn)
→ 2, 0
- CSCC1CCN(C(=O)Nc2cc(Br)c[nH]c2=O)C1 (stereo not drawn)
→ 1, -4
- CC1=NN(C(=O)c2ccccc2)C(O)(c2ccc(F)cc2)C1 (stereo not drawn)
→ -7, -11
- CCOC(=O)c1ccc(NC(=O)CC2CCCCN2S(=O)(=O)c2ccc(OC)cc2)cc1 (stereo not drawn)
→ 7, 2
- Cc1ccccc1C1c2ccsc2CCN1C(=O)CN(CC1CCCO1)C(=O)COc1ccc(Cl)cc1 (stereo not drawn)
→ -9, 1

Random excerpt: two records from the list, in no set order.
Values in the order: NPYLR7 ag, NPYLR7 ag max-min
- CC(/C=C1\N=C(c2cccc(Br)c2)OC1=O)=C\c1ccccc1
→ -2, -5
- Cc1ccc(Nc2nc(NCCN(C)C)nc3c2cnn3-c2ccccc2)cc1C
→ 0, -2

Going on with the list:
Values in the order: NPYLR7 ag, NPYLR7 ag max-min
- Cc1nc2c(OCc3ccc(F)c(F)c3)cccn2c1N(C)C(=O)CCC1CCCC1
→ -5, -6
- Cc1ccsc1C(=O)N1CCN(c2ccc(NC(=O)c3ccco3)cn2)CC1
→ -6, -7
- CCCS(=O)(=O)NC(=O)C1(C)CCN1C(=O)Cc1ccccc1Cl (stereo not drawn)
→ 7, 3
- CN(C)N=Cc1ccc(P(=O)(c2ccccc2)c2ccccc2)n1C
→ 0, 3
- Cn1cccc1C(=O)NCC1(NC(=O)c2cccn2C)CCOCC1
→ -1, -10
- Cn1c(=O)c2c(SCc3ccc(F)cc3)nc(C3CC3)nc2n(C)c1=O
→ 7, 11
- Cn1ncc(Oc2cccc(Cl)c2)c(Nc2ccc(C(=O)NCc3ccco3)cc2)c1=O
→ -7, -1
- O=C1N(Nc2ccccc2)C(c2ccc(Br)cc2)C12CCCC2 (stereo not drawn)
→ -13, -14
- O=c1cc(CSc2ccccn2)[nH]c(=O)[nH]1
→ 0, 0
- Cc1cc(C(=O)NCC(F)(F)F)no1
→ 8, 9
- COCCN1CCC(CN(CC2CCCO2)C(=O)C2CCOCC2)CC1 (stereo not drawn)
→ 13, 6
- OCCCN(Cc1cc(Cl)cc2c1OCOC2)C1CCCc2ccccc21 (stereo not drawn)
→ 10, 11
- CCOC(=O)C1(C)CCN1C(=O)c1ccoc1 (stereo not drawn)
→ -2, -7
- COCCN(CC(=O)N1CC(=O)N(c2ccc(Cl)cc2)C1)C(=O)c1ccccc1OC
→ 1, 2
- CC(=O)Nc1sc2c(c1C(N)=O)CCCC2
→ -4, -5
- O=C(NCCCN1CCCC1=O)c1c(O)nc2ccccn2c1=O
→ -1, 18
- Cc1cc(S(=O)(=O)N2CCC(CO)(Cc3ccc(Cl)cc3)CC2)c(C)s1
→ 1, -7
- O=c1ccc(-c2ccc(Br)cc2)nn1Cc1ccccc1
→ 6, 2
- C=C(C)COc1ccccc1C(=O)N(C)Cc1cc(C2CC2)n[nH]1
→ 6, -3
- CCOC(=O)c1cc(-c2cccc(OC)c2)n(-c2ccc(C(=O)N3CCSCC3)cc2)n1
→ -3, -11
- CN1CCc2ccc(S(=O)(=O)N(C)c3cccc(C#N)c3)cc21
→ 2, 1
- CC(=O)NCC1=CCCN(CC(=O)NC(C)c2ccc(C)cc2)C1 (stereo not drawn)
→ 12, 10
- Cc1cc(C(=O)NCCCOc2cccc([N+](=O)[O-])c2)nn1C
→ -9, -15
- O=C(CCCc1cccs1)N1CCc2[nH]nc(-c3ccccc3)c2C1
→ 13, 7
- CC(=O)Nc1cccc(S(=O)(=O)N2CCCC(N3CCCC3=O)C2)c1 (stereo not drawn)
→ 9, 4
- COCCn1ccnc1-c1cc(C)c(O)c(C)c1
→ 5, -1
- COc1cccc(S(=O)(=O)N2CCN(c3ncccc3C(=O)NCCc3ccc(OC)c(OC)c3)CC2)c1
→ 26, 19
- COc1ccccc1N1CCN(c2ccc(NC(=O)c3ccc(Cl)cc3)cc2C(=O)NC(C)c2ccccc2)CC1 (stereo not drawn)
→ 16, 10
- Cc1ccc2c(c1)c(-c1cccc(CN3CCOCC3)c1)nn2C
→ 4, 0
- COc1cccc(COc2coc(CN3CCCN(S(=O)(=O)c4ccccc4S(C)(=O)=O)CC3)cc2=O)c1
→ 19, 13
- CCCN(CC(=O)N(CCc1c[nH]c2ccccc12)Cc1ccc(F)cc1)C(=O)Nc1ccc(F)cc1F
→ -7, -1
- CC(=O)OC/C=C(\C)CC/C=C(\C)CC/C=C(\C)CC/C=C(\C)CC/C=C(\C)CC/C=C(\C)CC/C=C(\C)CC/C=C(\C)CCC=C(C)C
→ -4, -10
- CCOc1cccc(OCCCOc2ccc([N+](=O)[O-])cc2)c1
→ -6, 3
- C=c1occc1=C1NN=C2SCC(c3ccc(-c4ccccc4)cc3)=NN21
→ 4, 2
- CCc1nc(N(CCC(=O)NC2CC2)CCc2ccccc2)c2ccccc2n1
→ 3, 14
- Cc1nc(N2CCC(C(=O)NC3CCCc4ccccc43)CC2)nc2ccccc12 (stereo not drawn)
→ 17, 5
- O=C(Nc1ccc(N2CCC(NC(c3ccccn3)C(F)(F)F)CC2)cc1)c1cnccn1 (stereo not drawn)
→ 4, -10
- CCc1cc(CN(C)C(=O)[C@@H]2C[C@@H](NC(=O)c3cccc(C#N)c3)CN2)on1
→ 1, 1
- CN(Cc1ccc(Br)cc1)C(=O)Nc1ccc(F)c(F)c1F
→ 10, 5
- COc1ccc(C(=O)N2CCN(C(=O)CCCc3ccccc3)CC2)c(OC)c1
→ -1, -3
- COC(=O)c1ccccc1NC(=O)Cn1c(SC)nc2ccccc21
→ 2, 0
- NCCSc1n[nH]c(=O)[nH]c1=O
→ 42, 27
- CCOc1ccc2cc(C(=O)N3CCCN(CC4CCCCC4)CC3)[nH]c2c1
→ 0, -7
- O=P1(NCc2ccncc2)C=C(c2ccccc2)OC(c2ccccc2)=C1
→ 0, 0
- COCC(C)NC(=O)c1cc(-c2ccccc2)nc2c1c(C)nn2C1CCS(=O)(=O)C1 (stereo not drawn)
→ 3, 9
- O=C(CN1C(=O)C2C3CC(C(Br)C3Br)C2C1=O)NC1CCCCC1 (stereo not drawn)
→ 16, 8
- CC(=O)Nc1ccc(Cl)c(C(=O)NC(CF)Cc2ccccc2)c1 (stereo not drawn)
→ 1, -8
- CCOC(=O)c1ccc(NCc2ccc3n2CCC3=O)cc1
→ 8, 4
- COC(C)c1nc(C)c(C(=O)Nc2n[nH]c(C(C)C)n2)s1 (stereo not drawn)
→ 8, 6
- CCn1cnc(NC(=O)NC2CCOC(C)(C)C2)n1 (stereo not drawn)
→ 1, 3
- Cc1cc(C(=O)N2CCC2(C)C(=O)Nc2cccc3c2CCCC3)nn1C (stereo not drawn)
→ 8, 6
- CCOC(=O)CCNC(=O)N1CCn2cccc2C1c1ccc(Cl)cc1 (stereo not drawn)
→ 7, 5
- CC(O)CN1CCN(CC(=O)N(C2=CCCCC2)C2CC2)CC1C (stereo not drawn)
→ 0, 1
- O=C(CCC1CCCC1)Nc1cc(-c2ccc(Cl)cc2)nn1-c1cc(Cl)ccc1Cl
→ 51, 31
- CC1=NN(C(C#N)c2ccco2)C(C)(C)C1 (stereo not drawn)
→ 14, 4
- CN1CCC(Cc2noc(CN3CCCCCCC3)n2)CC1
→ 23, 16
- CCCCn1c(=O)[nH]c(=O)c2c1nc(CNCCOC)n2CCC
→ 4, 6
- CCCC(O)CN(CCOC)Cc1ccc(OC)c(OC)c1 (stereo not drawn)
→ 38, 32
- C=CCN(C(=O)C/C=C/c1ccc(F)cc1)c1ccccc1
→ 7, 5
- COC(=O)c1cc(OC)nc2c1c(=O)n(C)c(=O)n2C
→ -2, -4
- O=C(Nc1sc2c(c1C(=O)NC1CCS(=O)(=O)C1)CCCC2)c1ccco1 (stereo not drawn)
→ 1, -1
- CC(C)CCNC(=O)CSc1nc2sc3c(c2c(=O)[nH]1)CCCC3
→ -3, -3

Individual results from above.
O=C(CCC1CCCC1)Nc1cc(-c2ccc(Cl)cc2)nn1-c1cc(Cl)ccc1Cl in NPYLR7 ag reads 51
O=C(Nc1sc2c(c1C(=O)NC1CCS(=O)(=O)C1)CCCC2)c1ccco1 (stereo not drawn) in NPYLR7 ag reads 1
CCCCn1c(=O)[nH]c(=O)c2c1nc(CNCCOC)n2CCC in NPYLR7 ag reads 4
CC(C)CCNC(=O)CSc1nc2sc3c(c2c(=O)[nH]1)CCCC3 in NPYLR7 ag max-min reads -3
CCOC(=O)CCNC(=O)N1CCn2cccc2C1c1ccc(Cl)cc1 (stereo not drawn) in NPYLR7 ag reads 7
